TRPML1 ag – agonists of human TRPML1 channel | AID 624414 | Q9GZU1 | TRPML1-expressing cells, Ca2+ dye fluorescence, FDSS; host cell line not named in the record; reference of the full effect not given here | 0.12% of 410,000 active | activation, % (concentration not given with the values); in the data active = activation above about 50%; inconclusive = about 30% to 50%; inactive = below about 30%; also: 0% is about no effect; the text of the record puts the active cut at 80%
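TRPML1-DL cells, Tet-induced overnight (~16 h, 37 degrees C), loaded 45-90 min at room temperature with Ca8 no-wash calcium dye plus quencher. FDSS fluorescence: 10 s baseline, compound pin-transfer, 110 s agonist read, then EC80 54-4 (4uM final) and 110 s antagonist read.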
Sfp inh – Sfp phosphopantetheinyl transferase inhibition | AID 1490 | 3.5% of 310,000 active | Potency, µM, for the others: max response, negative = inhibition, hits mostly inhibitors | Q9F4F7 | Biochemical Sfp PPTase activity, qHTS; active = well fitted inhibition curve with a large enough effect; inconclusive = small, poorly fitted or top-dose-only effect, or another doubt; inactive = no such curve, though single readings can be large or run the other way;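 also: the enzyme is Sfp with the accession as filed and its product quenches rhodamine fluorescence; potency is read from the fitted curve at half-maximal effect; 0% = enzyme reaction without inhibitor and -100% = no enzyme wells; top concentration of the series not given in the record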
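Fluorescence-quenching assay with 15 nM Sfp, 5 uM rhodamine-CoA and 12.5 uM BHQ-2-labelled ybbR peptide in pH 7.6 Hepes/MgCl2 buffer. Enzyme was pre-incubated with compound for 15 min at room temperature. Rate was taken from the 30-min fluorescence change (525/598 nm).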
TRPML1 blocker – inhibitors of human TRPML1 channel | Q9GZU1 | TRPML1-inducible cells, Ca2+ dye fluorescence, FDSS; stronger effect = lower value; inhibition of EC80 agonist-evoked calcium signal | activity change, negative = inhibition, % (test concentration not listed) | 0.02% of 390,000 active | AID 624415; in the data active means activity change below about -50%; inconclusive means about -30% to -50%; inactive means above about -30%;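 also: stimulus is agonist 54-4 at its EC80 concentration; % is scaled to controls: 0 for no effect and ±100 for the full control effect; compound concentration not given in the record; the text of the record puts the active cut at -80%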
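Tet-induced TRPML1-DL cells loaded with Ca8 no-wash calcium dye were read kinetically on FDSS. Compound addition was followed by EC80 agonist 54-4 (4 uM final); inhibition was read over 110 s.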
ClpP mod – qHTS Assay for Activators of ClpP; AID 651965, 2013; purified B. subtilis ClpP, FRET peptide cleavage, 20 min; 1.9% of 340,000 active; Potency, µM (titrated, usually from 57.5 µM), for inactives: at the highest dose activity change, negative = active; ATP-dependent Clp protease proteolytic subunit (Bacillus subtilis (strain 168)), P80244; active = well fitted falling curve with a large enough effect; inconclusive = small, poorly fitted or top-dose-only effect; inactive = no such curve, though single readings can be large or run the other way; also: potency is read from the fitted curve at half-maximal effect; the source files actives as falling curves though it sought activators and does not explain the sign; nearly all actives have a fitted effect of over 65% in size; many hits overshoot -100%
Target sequence (P80244 whole entry, looked up): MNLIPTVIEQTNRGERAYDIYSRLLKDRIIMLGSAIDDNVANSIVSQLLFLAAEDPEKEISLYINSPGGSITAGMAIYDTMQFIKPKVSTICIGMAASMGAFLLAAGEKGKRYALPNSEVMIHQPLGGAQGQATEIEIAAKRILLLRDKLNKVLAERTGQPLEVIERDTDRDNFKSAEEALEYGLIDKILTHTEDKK
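FRET quenching reversal measured ClpP activation: 10 microg/mL B. subtilis ClpP at pH 8 with the FRET-FV decapeptide, read at 430 nm after 320 nm excitation. The 20-min minus 0-min signal was scaled between DMSO/no-enzyme wells and ADEP (5.8 microM final).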
PINK1 modulator – PINK1 expression modulation; PINK1 immunofluorescence, high-content cytometry, 24 h; Potency, µM (highest dose often 76.6 µM), inactives show at the top dose activation (PINK1 increase), usual class: activators; 0.2% of 410,000 active; AID 624263; active = well fitted activation curve with a large enough effect; inconclusive = small, poorly fitted or top-dose-only effect; inactive = flat fitted curve, though single readings scatter; cell line not stated here;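 also: potency is read from the fitted curve at half-maximal effect; % of control where 0% means no effect; nearly all actives have a fitted effect of over 65% in size; a mitochondrial uncoupler was the plate control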
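Fluorescence from anti-PINK1 antibody, together with nuclear and cell stains, was scanned on a laser-scanning cytometer. Before staining, stable-line cells were incubated 24 hours with compounds at 5 concentrations; primary antibody 12 h at 10 degrees C.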
Menin MLL FP FL – displaces fluorescein MLL peptide from human menin; 290,000 tested, under 10 active; Fluorescence polarization, fluorescein-MLL peptide displacement from menin; FP activity change, % at 61.4 µM; inconclusive = falling polarisation curve, or a change in total fluorescence; inactive = total fluorescence flat and polarisation flat or rising; no compound was filed as active; the % refers to the polarisation; negative = inhibition;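 also: % of control where 0% means no effect; inhibitors lower the polarisation; unlabelled MLL peptide was the positive control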
TRPV1 potentiator – enhances activation of the human vanilloid receptor TRPV1; TRPV1-expressing cells, Fluo-8 calcium influx, capsaicin EC20 potentiation; host cell line not named in the record; control for the full effect not named in the record; Q8NER1; 0.02% of 320,000 active; potentiation, % at 8.33 µM; active means potentiation above 80%; inconclusive means 30% to 80%; inactive means below 30%; also: 0% is about no effect
Target sequence (Q8NER1 whole entry, looked up): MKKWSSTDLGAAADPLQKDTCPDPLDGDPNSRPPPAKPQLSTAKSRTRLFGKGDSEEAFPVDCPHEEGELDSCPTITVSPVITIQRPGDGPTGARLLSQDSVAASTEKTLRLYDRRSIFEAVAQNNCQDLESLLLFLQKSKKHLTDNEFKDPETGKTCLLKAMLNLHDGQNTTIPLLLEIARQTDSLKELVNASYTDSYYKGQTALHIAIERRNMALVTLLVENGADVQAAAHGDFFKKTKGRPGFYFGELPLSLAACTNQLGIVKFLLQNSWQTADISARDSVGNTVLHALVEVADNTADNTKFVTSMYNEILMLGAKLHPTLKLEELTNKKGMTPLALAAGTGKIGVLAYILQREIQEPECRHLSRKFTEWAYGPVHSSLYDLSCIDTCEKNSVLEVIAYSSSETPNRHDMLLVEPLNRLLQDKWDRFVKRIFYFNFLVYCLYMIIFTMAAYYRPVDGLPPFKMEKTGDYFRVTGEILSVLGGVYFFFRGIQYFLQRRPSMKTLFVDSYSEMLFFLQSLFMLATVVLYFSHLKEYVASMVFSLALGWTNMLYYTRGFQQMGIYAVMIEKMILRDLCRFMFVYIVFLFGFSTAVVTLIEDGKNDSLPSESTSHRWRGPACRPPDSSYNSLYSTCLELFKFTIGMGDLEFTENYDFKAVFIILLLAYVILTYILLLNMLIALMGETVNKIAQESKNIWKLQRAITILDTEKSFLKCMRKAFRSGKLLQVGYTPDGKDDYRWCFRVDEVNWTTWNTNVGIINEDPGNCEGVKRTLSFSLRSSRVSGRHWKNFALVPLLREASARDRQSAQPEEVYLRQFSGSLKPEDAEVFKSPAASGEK
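TRPV1-expressing cells were cultured overnight at 35.5C and loaded with Fluo-8 calcium dye for 40 to 90 min at room temperature. After a 10 s baseline, compound was added and calcium influx was read kinetically for 3 min (ex 480/em 520 nm).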
Starred values were filed as active, the others as inactive; ? = inconclusive; . = no result given; & = joins results of further samples; [ ] = dose if it differs, or a comment.

SMILES	TRPML1 ag	Sfp inh	TRPML1 blocker	ClpP mod	PINK1 modulator	Menin MLL FP FL	TRPV1 potentiator
Cc1cc(OCC(=O)Nc2ccccc2C(N)=O)c2c(C)cc(=O)oc2c1	.	9%	.	4.3%	-0.8%	3.1	10
CCCCC(c1nnnn1CS(=O)(=O)c1ccc(C)cc1)N1CCC(C(N)=O)CC1 (configuration not stated)	0.1	14%	7	-3.3%	3.7%	5.5	-14
COc1cc(Br)c(C(=O)c2nccc3cc(OC)c(OC)cc23)cc1OC	0.6	6%	-5	.	2.9%	-1.8	4
CCCCn1c(N)c(N(CC(C)C)C(=O)CSc2n[nH]c(-c3ccc(C)cc3)n2)c(=O)[nH]c1=O	-1.2	.	-8	0.9%	2.2%	.	-1
C/C(CC(=O)Nc1ccc(Cl)c(C(F)(F)F)c1)=N\NC(=O)c1cccc(O)c1	1.1	-1%	3	-2.1%	4.7%	-6.2	3
CC1=C(C(=O)Nc2ccccc2C)C(c2ccccn2)n2ncnc2N1 (configuration not stated)	0.6	.	4	0.3%	-3.6%	.	.
Cc1noc(-c2ccc(-c3noc(-c4cccc(F)c4)n3)cc2)n1	-0.7	.	-1	-0.5%	0.2%	.	.
Cc1ccccc1N1C(=O)C2C3CC(=O)C(c4ccccc43)C2C1=O (configuration not stated)	-0.4	15%	39	0.6%	-1.8%	7.0	7
CCc1ccc(NC(=O)CCNS(=O)(=O)c2cccc3nsnc23)cc1	0.4	12%	2	-0.7%	.	5.6	26
O=C(CC1C(=O)NCCN1Cc1cccc(Oc2ccccc2)c1)NCc1cccnc1 (configuration not stated)	-0.3	-15%	-13	.	1.0%	-11	5
O=C(C(c1ccccc1)c1ccccc1)N1CCN(Cc2ccc(Br)cc2)CC1	-0.2	-13%	-2	1.6%	-0.6%[38.3 µM]	4.0	-4
O=C1N(Nc2ccccc2)C(c2ccc(Br)cc2)C12CCCCC2 (configuration not stated)	-0.6	24%	18	0.1%	13%	-4.1	2
CC(=O)c1ccc(NC(=S)Nc2ccc(N3CCOCC3)cc2)cc1	-1.3	?	2	.	3.4%	3.9	13
Cc1cccc(NC(=O)CC2S/C(=N/c3nccs3)N(C)C2=O)c1 (configuration not stated)	-0.3	25%	30	2.0%	6.8%	6.2	-4
c1ccc(N2CCN(c3ccccc3)C2c2cccs2)cc1	0.7	-13%	21	-0.1%	-3.1%	2.2	?

A few values from above.
COc1cc(Br)c(C(=O)c2nccc3cc(OC)c(OC)cc23)cc1OC in Sfp inh is entered as 6%
O=C(CC1C(=O)NCCN1Cc1cccc(Oc2ccccc2)c1)NCc1cccnc1 (configuration not stated) in TRPV1 potentiator is entered as 5

Continuation:
SMILES	TRPML1 ag	Sfp inh	TRPML1 blocker	ClpP mod	PINK1 modulator	Menin MLL FP FL	TRPV1 potentiator
COc1ccc(/C(C)=N/Nc2ncc(Cl)cc2Cl)c(O)c1	1.4	13%	4	1.0%	8.3%	0.1	4
COc1ccc(NC(=O)c2cc(-c3ccc(C)cc3)on2)cc1	-0.3	10%	-9	.	2.9%	-0.9	-15
CCCNC(=O)C1CCN(S(=O)(=O)c2ccc(Br)cc2)CC1	1.5	18%	16	0.7%	11%[38.3 µM]	1.1	8
CCN(C(=O)Nc1ccccc1OC)c1c(N)n(Cc2ccccc2)c(=O)[nH]c1=O	-0.5	5%	-13	-3.4%	-0.5%	0.1	18
CCN(CC)c1ncn(Cc2c(Cl)cccc2Cl)c2ncnc1-2	3.3	-12%	22	-3.5%	6.1%	1.5	6
CC(C)(C)c1ccc(C(=O)NNC(=O)c2ccncc2)cc1	0.4	-1%	21	-1.2%	-0.4%	-0.5	-23
Cc1ccc(C)c(NC(=O)CN2C(=O)COc3ccc(Cl)cc32)c1	1.3	.	-20	0.0%	-0.1%	.	.
Cc1cc(S(=O)(=O)Nc2ccc(C(=O)NCc3cccnc3)cc2)ccc1F	0.3	.	-12	-4.3%	5.2%	.	3
O=C(O)/C=C/C(=O)NC1CCC(CC2CCC(NC(=O)/C=C/C(=O)O)CC2)CC1 (configuration not stated)	0.0	-2%	-14	.	-1.5%	-5.2	2
COc1ccc(CCNC(=O)CSc2nc(-c3ccco3)cc(C(F)(F)F)n2)cc1OC	-0.4	0%	1	1.6%	.	0.9	-2
C/C=C\C(=O)Nc1cccc(C2=NOC3(C2)C[C@@H](C(N)=O)N(C(=O)c2ccc(Cl)cc2)C3)c1 (some centres not stated)	-0.6	5%	-10	1.3%	0.8%	-0.1	-8
Clc1cccc(Cc2c(-c3cccc(Br)c3)nc3ccc(Br)cn23)c1	1.0	.	-6	-6.9%	0.7%	.	.
CCC1(c2ccc(F)cc2)NC(=O)N(CC(=O)c2ccc[nH]2)C1=O (configuration not stated)	-0.1	-7%	9	0.7%	0.8%	3.1	-2
Cc1onc(-c2c(Cl)cccc2Cl)c1CO/N=C(\C#N)c1c(Cl)cccc1Cl	0.2	-8%	0	.	11%	0.0	6
CCOC(=O)N/N=C/c1ccc(OC)c(O)c1	1.3	-22%	-5	-2.4%	0.5%	1.2	-11
CCOc1ccccc1CNCc1ccc(F)cc1	0.7	7%	-26	.	0.8%	0.2	-34
Cc1ccc(C2N=C(N)Nc3nc4ccccc4n32)cc1 (configuration not stated)	0.0&0.1	4%	-14&-4	-2.8%	-0.2%&0.3%	-3.8	-3
COc1ccc(N(CC(=O)N2CCN(Cc3ccccc3)CC2)S(C)(=O)=O)cc1	.	14%	.	-23%	-0.9%	-5.9	2
CCOC(=O)C1=C(COC(=O)/C=C/c2cc(Br)ccc2F)NC(=O)NC1C (configuration not stated)	1.8	.	18	0.7%	2.1%	.	2
COc1ccc(C(=O)NC2CCCCCC2)cc1S(=O)(=O)N1CCCC1	-0.8	23%	12	.	-0.3%	-1.0	14
CCN1C(=O)[C@@H]2[C@@H]3CN(S(=O)(=O)c4ccc(C)cc4)[C@@H](c4ccccc4F)[C@@H]3C(=O)C[C@@H]2C1=O	-0.3	.	.	-1.1%	-0.4%	.	.
Cc1cccc(CN(C)C[C@H]2OCc3cnnn3CCCC(=O)N([C@H](C)CO)C[C@@H]2C)c1	-0.8	.	-1	0.7%	-0.6%	.	.
CN(C)Cc1c(C(=O)N/N=C/c2ccccc2OCc2ccc(F)cc2)nnn1-c1nonc1N	-1.0	8%	-4	-1.2%	4.2%	-14	-6
Cc1noc2ncnc(Oc3ccc(Cl)cc3Cl)c12	-0.6	15%	-8	-7.4%	1.5%	-1.1	4
CCOC(=O)c1cnc(NCc2ccccc2)nc1C	1.3	13%	-3	-11%	.	5.8	1
CCOC(=O)c1cnn(Cc2cccc(Cl)c2)c1C	1.7	-22%	-3	.	4.4%	1.8	27
COCCn1c(SC2CCOC2=O)nc2ccccc2c1=O (configuration not stated)	0.1	12%	-6	.	-1.1%	2.6	1
CCOC(=O)N1CCC(N2Cc3cccc(C(=O)N4CCN(c5cccc(C)c5C)CC4)c3C2=O)CC1	-0.9	-19%	7	.	0.6%	-2.3	5
Cn1c(-c2sc3cc(C(F)(F)F)cnc3c2-c2cccnc2)n[nH]c1=S	-0.5	-29%	11	0.3%	0.6%	-2.9	-7
Cc1cc2nnc(SCC(=O)Nc3cc(S(=O)(=O)N4CCOCC4)ccc3Cl)n2c2ccccc12	2.5	-8%	-14	32µM*	1.3%	3.8	-14
Cc1cc(C)c(C)c(S(=O)(=O)NNC(=O)c2cccc(S(=O)(=O)N3CCOCC3)c2)c1C	-0.1	6%	-2	2.3%	-0.9%	4.8	4
Cc1ccc(NC(=O)c2ncn(CCCN3CCN(c4ccccn4)CC3)n2)cc1C	2.4	.	8	-2.6%	0.4%	.	.
Cc1noc(C)c1NC(=O)Nc1cccc2c1O[C@H](CN(C)C(=O)Nc1ccc3c(c1)OCO3)[C@@H](C)CN([C@H](C)CO)C2=O	-0.7	.	-17	-1.0%	0.0%	.	.
COc1ccc(OC)c2[nH]c(=O)c(CCNS(=O)(=O)c3ccc(C)cc3)cc12	-0.1	6%	-8	-11%	-2.4%	-3.5	-3
COCCNc1nc(NCc2ccccc2)c2cnn(C)c2n1	-0.7	8%	19	-7.0%	-0.3%	-3.3	2
O=C(c1ccccc1)c1ccc(OCC(O)CN2CCOCC2)cc1 (configuration not stated)	-0.4	.	-2	-1.1%	-0.9%	.	.
CC(=O)c1ccc(N2CCN(S(=O)(=O)c3cccc4nonc34)CC2)cc1	1.5	-6%	16	-1.7%	-0.2%	9.2	19
COc1ccc(C(=O)NCC(=O)N/N=C/c2ccc(C)o2)cc1OC	-0.4	?	-10	-4.0%	0.0%	0.9	3
CCOc1cc(C(=O)N2CCc3cc(OC)c(OC)cc3C2)ccc1OC(F)F	.	-14%	.	.	.	1.2	-6
FC(F)(F)c1nc2ccccc2[nH]1	0.8	11%	12	1.6%	0.2%	-0.7	1
COC(=O)c1cn(NC(=O)c2ccc([N+](=O)[O-])cc2Cl)c(=O)c2ccccc12	-0.2	8%	-17	0.4%	5.5%	-3.6	-32
COc1ccc(-c2nc(Cn3c(=O)cc(C)c4c(C)nn(-c5ccccc5)c43)c(C)o2)cc1OC	2.4	.	3	-7.2%	3.1%	.	.
CC(C)OC(=O)c1ccc(NC(=O)c2ccccc2)cc1	0.6	3%	-7	-4.5%	7.9%	2.0	-16
O=C(CSc1ncccc1C(=O)O)c1ccccc1	-0.6	?	5	0.2%	-5.2%[38.3 µM]	0.2	?
COc1cccc(/C=C2\SC(=O)N(CCC(=O)NNC(=O)c3cccc(Cl)c3)C2=O)c1	-0.5	4%	18	-1.2%	8.5%	-0.8	-5
Cc1ccc(C)c(NC(=O)Nc2cc3c(cc2N2CCCCC2)n(C)c(=O)n3C)c1	1.2	.	70	-25%	0.3%	.	.
CC(=O)N1c2ccc(F)c(F)c2C[C@H]1C	0.2	.	-5	-2.3%	1.0%	.	3
COc1c(C)cccc1C(=O)NCc1ccc2c(c1)OCO2	0.0	-1%	0	.	1.7%	-3.8	9
O=C(N/N=C/c1ccc(OC(=O)c2ccc([N+](=O)[O-])cc2)cc1)c1cccnc1	-0.3	16%	4	1.1%	2.2%	2.4	10
Cc1ccc(N2CC(C(=O)Nc3ccccc3C(=O)N3CCOCC3)CC2=O)cc1 (configuration not stated)	-0.7	7%	9	0.3%	-0.8%	-3.2	7

Screening results from PubChem.
